Compound activity deposited in PubChem BioAssay by several laboratories.
Calb FLC = C. albicans growth modulation with fluconazole | AID 1979 | C. albicans CaCi-2 (fluconazole-resistant clinical isolate) + fluconazole, Alamar Blue growth, 48 h | growth inhibition, % (concentration not given with the values) | actives 0.57% (n = 300,000);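 active = most replicates above 75%; inconclusive = exactly half above 75%; inactive = most below 75%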;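 note: all wells also contain fluconazole at 8 µg/ml as a sub-toxic cotreatment; 0% = median of DMSO wells and 100% = median of geldanamycin control wells; wells of about 8 µL received 7.5 nL stock; the first replicate is given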
UCH37 DUB inh = blocks the human deubiquitinase UCH37 | purified proteasome/UCH37, Ub-AMC cleavage fluorescence | AID 588478 | actives 0.33% (n = 330,000) | Q9Y5K5 | inhibition, % (test concentration not listed);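 active = mean of two replicates above 20%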;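 note: 0% = compound-free wells with enzyme and 100% = wells lacking proteasome; stock transfer was 100 nL into about 20 µL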
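Assay system: Proteasome-bound UCH37. Buffer or medium: pH 7.4 Tris-HCl (50 mM) with ovalbumin, ATP-MgCl2, DTT. Incubation: 30 min preincubation with enzyme, 25 min cleavage at room temperature. Measured by: fluorescence, ex 355 nm, em 460 nm. Read-out basis: percent inhibition. Control set: wells without proteasome as full block, compound-free enzyme plus substrate as uninhibited.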
A1 inh = inhibitors of the anti-apoptotic protein A1, read as caspase activation | MEF A1-2A-BIM cells, Caspase-Glo 3/7 luminescence, 3 h; percent of clofoctol response, vehicle zero | actives 0.066% (n = 330,000) | caspase activation, % (concentration not given with the values);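 active = over half of replicate activation scores above 10%, or exactly half above 10 with the replicate mean above 10; inconclusive = replicate mean below 10 yet half the replicates above 10; inactive = over half of replicates below 10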;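 note: wells of about 30 µL received 50 nL stock; many hits fall short of the cut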
T cruzi inh = blocks replication of Trypanosoma cruzi; AID 1885; T. cruzi beta-gal in NIH3T3, luminescence, 90 h; actives 1.4% (n = 300,000); inhibition, % (test concentration not listed);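 active = mean inhibition across valid replicates above about 55%, limit read from the data; inconclusive = mean below that limit but half or more replicates reach it; inactive = mean below it, under half of replicates reach it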;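 note: signal also drops with host cell toxicity which is not excluded here; 0% = plate median of DMSO wells and 100% = zero luminescence signal; higher percent means less beta-gal luminescence so fewer parasites; stock transfer was 50 nL into about 50 µL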
RanGTP-Impb inh = disruptors of Ran-importin-beta complex formation – biochemical, FRET, CFP-Ran, YFP-importin-beta, homogeneous, primary screen. cell-free CFP-Ran/YFP-importin-beta FRET ratio. inhibition, % (no concentration beside the values). AID 2216. actives 1.1% (n = 300,000);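 active = most replicates above 15%; inconclusive = exactly half above 15%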;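 note: 0% = DMSO wells and 100% = Ran loaded with GDP instead of GTP; wells of about 40 µL received 100 nL stock; the first replicate is given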
Beta2AR agonist = agonists of human beta-2 adrenergic receptor inducing internalization. P07550. Am2.2-beta2AR cells, FAP receptor internalization, flow cytometry; reference of the scale not given here. response, % (test concentration not listed). actives 0.43% (n = 340,000). AID 504454;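 active = response above a set limit, near 3 SD of response in nonfluorescent compounds, cut at about 42% in these data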;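 note: stock transfer was 100 nL into about 11 µL; a reference agonist was the positive control; negative values mostly stem from fluorescent compounds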
Beta cell apopt = blocks beta cell apoptosis; INS-1E cytokine-induced death, ATP luminescence, 48 h; percent of positive-control rescue, neutral wells zero; protection from apoptosis, % (concentration not given with the values); actives 0.8% (n = 300,000); AID 435005;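 active = all replicates at 75% or more, or half of them and the mean; inconclusive = half reach 75% but not the mean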;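 note: 0% = cytokine-treated negative control wells and 100% = positive control rescue; higher means more ATP so stronger rescue from cytokine killing; wells of about 40 µL received 100 nL stock; the first replicate is given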
LANA-H2A inh = blocks KSHV LANA binding to histone H2A/H2B; cell-free LANA-H2A/H2B peptide, fluorescence polarization; inhibition, % (concentration not given with the values); actives 0.6% (n = 320,000); AID 2629; in the data active = inhibition mostly above about 10%, no sharp cut-off; inactive = mostly below about 6.7%;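 note: stock transfer was 7.5 nL into about 10 µL; 0% = median of vehicle wells and 100% = median of positive control wells; one replicate is shown; the record names a cut of 25% in any replicate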
Target sequence (Q9QR71 whole entry, looked up): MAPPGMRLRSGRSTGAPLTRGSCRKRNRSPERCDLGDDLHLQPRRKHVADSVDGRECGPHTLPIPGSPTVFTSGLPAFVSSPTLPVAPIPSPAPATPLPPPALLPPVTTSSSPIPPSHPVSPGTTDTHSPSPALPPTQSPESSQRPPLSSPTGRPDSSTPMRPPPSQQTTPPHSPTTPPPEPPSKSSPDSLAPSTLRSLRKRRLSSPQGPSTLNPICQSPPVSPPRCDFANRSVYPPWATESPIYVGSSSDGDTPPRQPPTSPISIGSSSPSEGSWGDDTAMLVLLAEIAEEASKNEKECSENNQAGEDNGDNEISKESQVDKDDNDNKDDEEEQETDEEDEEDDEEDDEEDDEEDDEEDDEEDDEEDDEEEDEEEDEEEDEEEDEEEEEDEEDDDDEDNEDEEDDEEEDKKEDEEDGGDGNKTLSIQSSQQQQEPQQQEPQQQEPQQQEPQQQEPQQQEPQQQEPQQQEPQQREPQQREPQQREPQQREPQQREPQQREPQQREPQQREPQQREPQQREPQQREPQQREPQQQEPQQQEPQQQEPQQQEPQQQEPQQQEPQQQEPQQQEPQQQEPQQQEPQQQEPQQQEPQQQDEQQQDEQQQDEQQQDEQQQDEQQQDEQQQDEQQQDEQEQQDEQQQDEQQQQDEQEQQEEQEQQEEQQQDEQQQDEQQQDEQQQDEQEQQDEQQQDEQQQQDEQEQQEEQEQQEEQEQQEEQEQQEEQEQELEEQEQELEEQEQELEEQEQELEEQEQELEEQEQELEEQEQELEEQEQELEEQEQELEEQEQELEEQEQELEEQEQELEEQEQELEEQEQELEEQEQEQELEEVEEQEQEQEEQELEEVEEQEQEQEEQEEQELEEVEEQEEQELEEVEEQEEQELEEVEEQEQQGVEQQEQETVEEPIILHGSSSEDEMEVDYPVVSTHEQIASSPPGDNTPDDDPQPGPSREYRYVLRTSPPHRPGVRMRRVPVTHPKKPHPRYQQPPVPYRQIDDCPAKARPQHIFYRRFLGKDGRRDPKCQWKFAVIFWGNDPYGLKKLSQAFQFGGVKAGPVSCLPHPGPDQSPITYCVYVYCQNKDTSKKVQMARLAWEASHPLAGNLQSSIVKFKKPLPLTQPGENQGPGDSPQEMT
Active calls of the source: *.

What do the screens show for `CN(C)c1oc(-c2ccccc2Cl)nc1C#N`?
Calb FLC: -6; UCH37 DUB inh: -57; A1 inh: 0.2; T cruzi inh: -20; RanGTP-Impb inh: 4.2; Beta2AR agonist: -1; Beta cell apopt: -6; LANA-H2A inh: -1.5

Results for COc1ccccc1NC(=O)CCn1c(=O)sc2ccccc21 ?
Calb FLC: 43; UCH37 DUB inh: 3.2; A1 inh: 0.7; T cruzi inh: -9; RanGTP-Impb inh: 0.8; Beta2AR agonist: 2; LANA-H2A inh: -1.1

How did COc1ccc(NS(=O)(=O)c2ccc(NS(C)(=O)=O)cc2)cc1 do in these assays?
Calb FLC: 4; UCH37 DUB inh: 4.1; A1 inh: -0.9; T cruzi inh: -22; RanGTP-Impb inh: 0.0; Beta2AR agonist: -1; Beta cell apopt: 4; LANA-H2A inh: 2.6

How did CN(C(=O)c1ccc(C#N)cc1)c1nnc(-c2cnccn2)s1 do in these assays?
Calb FLC: 5; UCH37 DUB inh: -0.4; A1 inh: -0.2; T cruzi inh: 5; RanGTP-Impb inh: 3.4; Beta2AR agonist: 9; Beta cell apopt: -1; LANA-H2A inh: -5.8

What do the screens show for `COc1ccc(NC(=O)c2sc(N3CCOCC3)nc2-c2ccccc2)c(OC)c1`?
Calb FLC: -8; UCH37 DUB inh: -32; A1 inh: 0.9; T cruzi inh: 24; RanGTP-Impb inh: -0.4; Beta2AR agonist: 16; Beta cell apopt: -7; LANA-H2A inh: -2.2

Results for COC(=O)COc1c(Cl)cc(Cl)c2ccc(C)nc12 ?
Calb FLC: 6; UCH37 DUB inh: 1.9; A1 inh: -0.3; T cruzi inh: -13; RanGTP-Impb inh: 11; Beta2AR agonist: -5; Beta cell apopt: -1; LANA-H2A inh: -1.3

What do the screens show for `CC1CCN(c2nc3c(cc2C#N)COC(C)(C)C3)CC1`?
Calb FLC: -5; UCH37 DUB inh: -190; A1 inh: 0.7; T cruzi inh: 7; RanGTP-Impb inh: 4.5; Beta2AR agonist: -4; Beta cell apopt: 4; LANA-H2A inh: -4.8

What do the screens show for `COc1cc(Cl)ccc1OCc1cc(C(=O)NCC(C)c2ccccc2)no1` (configuration not stated)?
Calb FLC: 3; UCH37 DUB inh: 2.6; A1 inh: inconclusive; T cruzi inh: 11; RanGTP-Impb inh: -3.0; Beta2AR agonist: 1; Beta cell apopt: 1; LANA-H2A inh: -2.3

How did CCC(COC)NCc1cn(-c2ccc(F)cc2F)nc1-c1ccccc1C (configuration not stated) do in these assays?
Calb FLC: 4; UCH37 DUB inh: 0.4; A1 inh: 0.3; T cruzi inh: -11; RanGTP-Impb inh: -2.9; Beta2AR agonist: -12; Beta cell apopt: 3; LANA-H2A inh: -3.0

What do the screens show for `Cc1cccc2c(Cl)cc(=O)[nH]c12`?
Calb FLC: -1; UCH37 DUB inh: -2.3; T cruzi inh: -19; RanGTP-Impb inh: -1.3

What do the screens show for `N#C/C(=C\c1c(N2CCOCC2)nc2ccccn2c1=O)S(=O)(=O)c1ccccc1`?
Calb FLC: 10; UCH37 DUB inh: 1.0; A1 inh: 0.4; RanGTP-Impb inh: 4.9; Beta2AR agonist: 1; Beta cell apopt: -3; LANA-H2A inh: -3.4

How did Cc1csc(SCC(=O)NC23CC4CC(CC(C4)C2)C3)n1 do in these assays?
Calb FLC: -10; UCH37 DUB inh: 0.2; A1 inh: 0.2; T cruzi inh: 7; RanGTP-Impb inh: -7.5; Beta2AR agonist: 3; Beta cell apopt: 0; LANA-H2A inh: -1.2

How did O=C(Nc1cccc2ncccc12)c1cc2ccccc2o1 do in these assays?
Calb FLC: -18; UCH37 DUB inh: 3.0; A1 inh: -0.6; T cruzi inh: -15; RanGTP-Impb inh: -1.6; Beta2AR agonist: -1; Beta cell apopt: -2; LANA-H2A inh: -2.7

Results for COc1ccc(-c2c(C(F)(F)F)oc3cc(OCC(=O)Nc4ccccc4C(F)(F)F)ccc3c2=O)cc1OC ?
Calb FLC: 5; UCH37 DUB inh: 4.8; A1 inh: 1.4; T cruzi inh: -24; RanGTP-Impb inh: 2.7; Beta2AR agonist: 3; Beta cell apopt: 5; LANA-H2A inh: -2.8

Results for COc1ccc(N2CCN(c3nc(Cl)nc(N4CCOCC4)n3)CC2)cc1 ?
Calb FLC: 0; UCH37 DUB inh: 1.1; A1 inh: 2.4; T cruzi inh: 3; RanGTP-Impb inh: -2.9; Beta2AR agonist: 0; Beta cell apopt: 3; LANA-H2A inh: 5.9

What do the screens show for `Cc1cc(C(=O)OCC(=O)NCc2ccco2)c(C)o1`?
Calb FLC: -19; UCH37 DUB inh: 4.9; A1 inh: 0.6; Beta2AR agonist: 5; Beta cell apopt: 0; LANA-H2A inh: -4.5

What do the screens show for `Cc1ccc(NC(=O)CN(C)C(=O)CSc2n[nH]c(N)n2)cc1`?
Calb FLC: 10; UCH37 DUB inh: 0.2; A1 inh: 0.0; T cruzi inh: -4; RanGTP-Impb inh: -0.9; Beta2AR agonist: -6; Beta cell apopt: 1; LANA-H2A inh: -1.4

Results for CCOC(=O)C1CCCN(S(=O)(=O)c2cccc3cccnc23)C1 (configuration not stated) ?
Calb FLC: 12; UCH37 DUB inh: 2.3; A1 inh: 0.1; T cruzi inh: -1; RanGTP-Impb inh: 2.2; Beta2AR agonist: -6; Beta cell apopt: -2; LANA-H2A inh: 3.3

Results for COc1cccc(C(=O)N/N=C/c2ccc(OC3CSC3)cc2)c1 ?
Calb FLC: -5; A1 inh: -3.0; T cruzi inh: -7; RanGTP-Impb inh: 0.6; Beta2AR agonist: 9; Beta cell apopt: 4; LANA-H2A inh: 46*

What do the screens show for `Cc1cccc(C)c1NC(=S)NCCc1ccccn1`?
Calb FLC: 5; UCH37 DUB inh: 4.0; A1 inh: 0.2; T cruzi inh: -15; RanGTP-Impb inh: 1.1; Beta2AR agonist: -7; Beta cell apopt: -5; LANA-H2A inh: -3.6

What do the screens show for `COc1cc(C(=O)N(Cc2ccccn2)CC2CCCO2)cc(OC)c1OC` (configuration not stated)?
Calb FLC: -2; UCH37 DUB inh: 1.2; A1 inh: -0.4; T cruzi inh: -4; RanGTP-Impb inh: inconclusive; Beta2AR agonist: -2; Beta cell apopt: 0; LANA-H2A inh: -2.5

Results for C=CCn1c(O)c(C=Nc2ccccc2)sc1=S ?
Calb FLC: 12; UCH37 DUB inh: 4.6; A1 inh: -1.5; T cruzi inh: -13; RanGTP-Impb inh: -2.7; Beta2AR agonist: 0; Beta cell apopt: 10; LANA-H2A inh: 1.7

Results for O=[N+]([O-])c1ccc(NCc2ccc(Cl)cc2)nc1 ?
Calb FLC: -24; UCH37 DUB inh: 2.2; A1 inh: -1.0; T cruzi inh: -4; RanGTP-Impb inh: 0.5; Beta2AR agonist: 8; Beta cell apopt: -12; LANA-H2A inh: -5.3

What do the screens show for `Cc1ccc(NC2CCCN(C(=O)c3cc(C(C)C)[nH]n3)C2)cc1C` (configuration not stated)?
Calb FLC: 12; UCH37 DUB inh: 5.5; A1 inh: -0.2; T cruzi inh: 8; RanGTP-Impb inh: -0.2; Beta2AR agonist: -2; Beta cell apopt: 4; LANA-H2A inh: -3.5

How did O=C(NCCS(=O)(=O)c1ccc(Br)cc1)c1ccc(Cl)cc1 do in these assays?
Calb FLC: 15; UCH37 DUB inh: 1.0; A1 inh: 0.2; T cruzi inh: 9; RanGTP-Impb inh: 0.2; Beta2AR agonist: -4; Beta cell apopt: 5; LANA-H2A inh: -6.8

Results for Cc1cc(NCc2ccccn2)n2nc(C)c(-c3ccc(Cl)cc3)c2n1 ?
Calb FLC: 15; UCH37 DUB inh: -108; A1 inh: -0.8; RanGTP-Impb inh: 1.8; Beta2AR agonist: 6; Beta cell apopt: 39; LANA-H2A inh: -1.7

How did COc1ccc(CC(NC(C)=O)C(=O)NC2CCN(C(=O)NCc3ccccc3)CC2)cc1OC (configuration not stated) do in these assays?
Calb FLC: 7; UCH37 DUB inh: -0.9; T cruzi inh: -13; Beta2AR agonist: 0

Results for CCOc1ccccc1C(=O)NCC(=O)OCC(=O)c1ccc2c(c1)OCCO2 ?
Calb FLC: -1; UCH37 DUB inh: -0.8; A1 inh: 0.6; T cruzi inh: 5; RanGTP-Impb inh: -1.9; Beta2AR agonist: 1; Beta cell apopt: -14; LANA-H2A inh: 0.8

What do the screens show for `CC(C)c1nc2sc3c(=O)[nH]c(=S)[nH]c3c2c2c1CCCC2`?
Calb FLC: -5; UCH37 DUB inh: 14; A1 inh: 1.2; T cruzi inh: 9; RanGTP-Impb inh: -1.1; Beta2AR agonist: 6; Beta cell apopt: -10; LANA-H2A inh: -1.4

How did COCCNC(=O)CN1CCCCCC1 do in these assays?
Calb FLC: -13; UCH37 DUB inh: 3.0; A1 inh: 1.4; T cruzi inh: 3; RanGTP-Impb inh: -5.3; Beta2AR agonist: 5; Beta cell apopt: -1; LANA-H2A inh: -1.5

Quoted from above for reference:
How did O=C(NCCS(=O)(=O)c1ccc(Br)cc1)c1ccc(Cl)cc1 do in these assays?
Calb FLC: 15; UCH37 DUB inh: 1.0; A1 inh: 0.2; T cruzi inh: 9; RanGTP-Impb inh: 0.2; Beta2AR agonist: -4; Beta cell apopt: 5; LANA-H2A inh: -6.8

Results for Cc1cc(NCc2ccccn2)n2nc(C)c(-c3ccc(Cl)cc3)c2n1 ?
Calb FLC: 15; UCH37 DUB inh: -108; A1 inh: -0.8; RanGTP-Impb inh: 1.8; Beta2AR agonist: 6; Beta cell apopt: 39; LANA-H2A inh: -1.7

(listing goes on)
What do the screens show for `Cc1nn(CC#N)c(=O)n1-c1cccc(F)c1`?
Calb FLC: -5; UCH37 DUB inh: 1.2; A1 inh: -0.3; T cruzi inh: -17; RanGTP-Impb inh: -3.7; Beta2AR agonist: 2; Beta cell apopt: 1; LANA-H2A inh: -5.6

Results for CC(C)(C)NC(=O)CSCc1ccc(Br)cc1 ?
Calb FLC: -9; UCH37 DUB inh: 2.2; A1 inh: 0.5; T cruzi inh: 15; RanGTP-Impb inh: 0.5; Beta2AR agonist: 5; Beta cell apopt: -4; LANA-H2A inh: -3.2

How did CSc1nnc(-c2sccc2-n2cccc2)o1 do in these assays?
Calb FLC: -18; UCH37 DUB inh: -2.0; A1 inh: -0.3; T cruzi inh: -10; RanGTP-Impb inh: 2.4; Beta2AR agonist: 1; Beta cell apopt: -3; LANA-H2A inh: -4.1

How did Cn1nc([N+](=O)[O-])c(C(C#N)c2nc3ccccc3n2C)c(Cl)c1=O (configuration not stated) do in these assays?
Calb FLC: 4; UCH37 DUB inh: 5.8; A1 inh: 0.0; T cruzi inh: -10; RanGTP-Impb inh: 7.2; Beta2AR agonist: 1; LANA-H2A inh: 0.6

Results for COc1ccc(C(=O)COC(=O)c2ccc(NC(C)=O)cc2)cc1[N+](=O)[O-] ?
Calb FLC: -7; UCH37 DUB inh: 4.7; A1 inh: 0.9; T cruzi inh: -12; RanGTP-Impb inh: inconclusive; Beta2AR agonist: 11; Beta cell apopt: -2; LANA-H2A inh: -4.0
